From PubChem BioAssay
MgrA DNA FP = S. aureus MgrA activity modulators, primary screen, biochemical, S. aureus Newman, fluorescence polarization | MgrA-DNA binding | inhibition, %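 (about 10 µg/mL by stock and volumes)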 | 0.13% of 84,000 active | AID 602314, 2012;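 active means above 50% in either of two replicates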;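 further: 0% = protein plus DNA without compound and 100% = DNA alone without protein; higher means less MgrA bound to DNA so lower polarization; one replicate is shown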
Sa helicase inh = inhibitors of S. aureus replicative helicase, primary screen, biochemical, fluorescence unwinding readout | replicative DNA helicase (DnaC/DnaB), Staphylococcus aureus | purified S. aureus helicase, fluorescence unwinding assay; about half of the hits fall short of the stated cut | inhibition, %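 (tested at about 80 µM)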 | 0.05% of 120,000 active | AID 485395, 2010;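 active means both duplicates at 50% or more, or one of them with a favoured structure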;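 further: 0% = mean of negative control wells and 100% = mean of positive control wells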
Active calls of the source: *; . = not tested or not shown; & = joins results of further samples.

SMILES	MgrA DNA FP	Sa helicase inh
CN=Cc1cc(-c2ccccc2)sc1S	13.1	-9.0
COc1ccc(C2=N/C(=C\c3ccc(-c4ccc(S(=O)(=O)Nc5ncccn5)cc4)o3)C(=O)O2)cc1	.	-249.0
C=CCn1c(CC(C)C)nnc1SCC(=O)c1ccc(Cl)cc1	8.8	0.0
COc1ccccc1Nc1cc(C(=O)N2CCN(Cc3ccccc3)CC2)c2ccccc2n1	0.7	11.0
CC(C)CN(C(=O)Nc1ccccc1)C1=NCC(C)S1 (stereo unspecified)	-1.9	13.0
N#CCCn1nc(-c2ccccc2)cc1Nc1ccccc1NC(=O)c1ccccc1	.	9.0
CCCS(=O)(=O)N1CCN(c2ccc(OC)cc2)CC1	.	0.0
CSC1=NCCN1C(=O)c1cccs1	.	-2.0
O=C(O)c1csc([N+](=O)[O-])c1	-1.0	.
O=C(CCC1=NS(=O)(=O)c2ccccc2N1)NCc1cccs1	.	-5.0
CN(C(=O)Cn1c(=O)oc2cc(S(=O)(=O)N3CCCC3)ccc21)c1ccc(Br)cc1	.	5.0
O=C1CCSc2c1cccc2C(=O)NC1CCCCC1	.	3.0
Cc1cc(=O)oc2ccccc12	-0.6	10.0
Cc1c(-c2ccnc(=S)[nH]2)sc2nc(C(F)(F)F)nn12	.	-9.0
CCN1C(=O)S/C(=C\c2cn(-c3ccccc3)nc2C)C1=S	.	-38.0
O=C(Cn1ccc(=O)[nH]c1=O)OCc1ccccc1C(F)(F)F	.	7.0
O=C(Cn1c(=O)oc2cc(S(=O)(=O)NCc3ccccc3)ccc21)N1CCOCC1	2.0	7.0
CCC(C)CCCNc1n[nH]c(=S)s1 (stereo unspecified)	.	-2.0
Cc1noc(C)c1CC(=O)N(CC1CCCO1)c1nc(-c2ccc(Br)cc2)cs1 (stereo unspecified)	.	-15.0
NC(=S)N/N=C/c1ccc(-c2ccc(S(=O)(=O)Nc3ncccn3)cc2)o1	.	-6.0
CCOC(=O)C1=C(C)N=c2s/c(=C\c3ccccc3OC)c(=O)n2C1c1ccc(OC)c(OC)c1 (stereo unspecified)	0.8	.
OC1N(CN2CCN(c3ccccc3F)CC2)c2ccccc2C12OCCCO2 (stereo unspecified)	17.5	11.0
Cc1nc(Cc2nnc(SCC(=O)c3ccc4[nH]c(=O)[nH]c4c3)o2)cs1	.	7.0
O=C(O)c1ccc(N=Cc2c(-c3ccccc3)[nH]oc2=O)cc1	0.3	5.0
CC(C)c1ccc(NC(=O)c2cccnc2Cl)cc1	-0.2	12.0
CC1CCCCN1c1ccc(N)cc1C(N)=O (stereo unspecified)	-3.4	4.0
CN(C(=O)CN1C(=O)C2CC=CCC2C1=O)C(c1ccccc1)c1ccccc1 (stereo unspecified)	.	1.0
N#Cc1c2c(c(=O)n3c1[nH]c1ccccc13)CCCC2	.	3.0
O=C(NC(Cc1c[nH]c2ccccc12)C(=O)O)c1ccccc1Cl (stereo unspecified)	0.3	13.0
O=C(O)CCN1C(=O)CCC1=O	-13.6	4.0
COc1ccc2c(COC(=O)CC3Oc4ccccc4NC3=O)cc(=O)oc2c1 (stereo unspecified)	.	-9.0
COc1cccc(NC(=O)NC2CCCC2)c1	7.0	10.0
Cc1ccc2c(c1)N(CCO)C(C)(C)CC2C (stereo unspecified)	0.8	.
Cc1cc(C)c2c(=O)c(C(=O)O)coc2c1	3.0	.
CN1CCN(C(=O)Cn2ncc3ccccc32)CC1	.	-2.0
CCCC1C2CN(Cc3ccccc3)CC=C2C(C#N)=C(N)C1(C#N)C#N (stereo unspecified)	21.2	-17.0
CC(Oc1ccc(Cl)cc1Cl)C(=O)NCCCn1ccnc1 (stereo unspecified)	-2.4	-8.0
CCc1nc(N2CCc3ccccc32)c2sc(=S)n(-c3ccccc3)c2n1	-1.3	10.0
COc1ccc(-c2cc(C(=O)N3CCCCC3C)no2)cc1 (stereo unspecified)	.	0.0
Nc1nc(Cc2ccc(F)cc2F)no1	2.2	.
O=c1cc(O)c2c(n1-c1ccccc1)CCCC2	3.5	.
N#CCc1nnc2n1CCCCC2	-0.2	2.0
O=C1Nc2ccccc2C1=Nc1ccc(-c2nnc3n2CCCCC3)cc1	.	-4.0
COc1cccc(-c2nc3sc4c(c3c(=O)o2)CCCC4)c1	.	-18.0
COc1ccc(N2C(=O)C3C(C2=O)C2(C)C=CC3(C)O2)c([N+](=O)[O-])c1 (stereo unspecified)	-1.0	.
Cc1ccc(OCC(=O)Oc2ccc(C)cc2)cc1	-0.6	6.0
CCOC(=O)C1CCN(C(=O)CCCn2nc(-c3ccccc3)c3ccccc32)CC1	11.4	9.0
Cc1ccc(CN(Cc2cccnc2)C(=O)Nc2ccccc2)cc1	.	23.0
N#Cc1nncn1CN1CCN(S(=O)(=O)c2cc(C(F)(F)F)cc(C(F)(F)F)c2)CC1	.	-2.0
Cc1nn(CCCC#N)c(=O)c2cc3sccc3n12	0.2	-1.0
Cc1cc2c(NC(=O)CC(C)(C)CC(=O)O)cccc2nn1	4.2	.
COC(=O)C1=C(C)NC(C)=C(C(=O)OC)C1	0.8	.
Cc1cc(-c2c(C(=O)Sc3ccccc3)c(C)nn2-c2ccccc2)no1	-1.8	.
CCOc1ccc(-n2c(O)c(/C=N/Nc3nnc(C)c(=O)[nH]3)c3ccccc3c2=O)cc1	.	1.0
O=C(O)CSc1nnc(COc2ccccc2)n1-c1ccccc1	.	-10.0
Cc1onc(-c2ccccc2)c1C(O)c1ccc(F)cc1 (stereo unspecified)	-1.1	.
O=c1c(/C=N/NC2CCS(=O)(=O)C2)c(N2CCCCC2)nc2ccccn12 (stereo unspecified)	.	-16.0
O=C(NCCc1cnc[nH]1)c1cccs1	-0.1	5.0
Cc1ccc2nc(COC(=O)c3ccc(OCc4c(C)noc4C)cc3)cc(=O)n2c1	.	0.0
CC(C#N)Sc1nnc(-c2cccnc2)n1C1CCCCC1C (stereo unspecified)	.	-5.0

A draw from above in order of number of heavy atoms, falling:
SMILES	MgrA DNA FP	Sa helicase inh
COc1ccccc1Nc1cc(C(=O)N2CCN(Cc3ccccc3)CC2)c2ccccc2n1	0.7	11.0
CCOc1ccc(-n2c(O)c(/C=N/Nc3nnc(C)c(=O)[nH]3)c3ccccc3c2=O)cc1	.	1.0
N#Cc1nncn1CN1CCN(S(=O)(=O)c2cc(C(F)(F)F)cc(C(F)(F)F)c2)CC1	.	-2.0
O=C(Cn1c(=O)oc2cc(S(=O)(=O)NCc3ccccc3)ccc21)N1CCOCC1	2.0	7.0
OC1N(CN2CCN(c3ccccc3F)CC2)c2ccccc2C12OCCCO2 (stereo unspecified)	17.5	11.0
O=c1c(/C=N/NC2CCS(=O)(=O)C2)c(N2CCCCC2)nc2ccccn12 (stereo unspecified)	.	-16.0
Cc1nc(Cc2nnc(SCC(=O)c3ccc4[nH]c(=O)[nH]c4c3)o2)cs1	.	7.0
Cc1ccc(CN(Cc2cccnc2)C(=O)Nc2ccccc2)cc1	.	23.0
O=C(NC(Cc1c[nH]c2ccccc12)C(=O)O)c1ccccc1Cl (stereo unspecified)	0.3	13.0
O=C(O)c1ccc(N=Cc2c(-c3ccccc3)[nH]oc2=O)cc1	0.3	5.0
CCN1C(=O)S/C(=C\c2cn(-c3ccccc3)nc2C)C1=S	.	-38.0
O=C1CCSc2c1cccc2C(=O)NC1CCCCC1	.	3.0
Cc1nn(CCCC#N)c(=O)c2cc3sccc3n12	0.2	-1.0
O=c1cc(O)c2c(n1-c1ccccc1)CCCC2	3.5	.
Cc1cc(C)c2c(=O)c(C(=O)O)coc2c1	3.0	.
Nc1nc(Cc2ccc(F)cc2F)no1	2.2	.
CCC(C)CCCNc1n[nH]c(=S)s1 (stereo unspecified)	.	-2.0
O=C(O)c1csc([N+](=O)[O-])c1	-1.0	.

Additional entries follow.
SMILES	MgrA DNA FP	Sa helicase inh
C/C(CC1(CC(C)C)CCCCC1)=N\NC(N)=O	-1.6	.
Cn1c(C(=O)NCCN2CCCCCC2)cc2sccc21	-0.1	-9.0
O=C(NC1=NCCCCC1)c1cccc2ccccc12	5.0	11.0
O=c1oc2ccccc2c2oc3cc(O)c(O)cc3c12	.	36.0
Cc1cc(NC(=O)NCc2ccccc2)no1	-1.2	3.0
Cc1ncc2c(c1O)COC(C(C)C)OC2 (stereo unspecified)	-1.5	.
O=C(CN(C(=O)C1CSC(=O)C1)c1ccccc1F)NCc1ccc2c(c1)OCO2 (stereo unspecified)	-2.5	13.0
CC(C)c1ccc(C2CC(=O)Nc3ccccc3S2)cc1 (stereo unspecified)	-0.8	.
N#Cc1ccc(NC(=O)CN2C(=O)CCC2=O)cc1	.	3.0
COc1ccc(C=C2C(=O)C3(C)CCC2C3(C)C)cc1 (stereo unspecified)	-0.3	13.0
CC(C)c1ccc2[nH]c3c(c2c1)CCCC3=O	0.4	8.0
COc1cccc(NC(=O)c2ccc3c(c2)C(=O)N(C2CCCCC2)C3=O)c1	.	4.0
CCOC(=O)c1c(NC(=O)/C=C/C(=O)O)sc2c1CCN(C(C)=O)C2	.	4.0
COc1cc(C(=O)N2CCNCC2)cc(OC)c1OC	-0.6	13.0
O=[N+]([O-])c1cccc(-c2csc(-c3cccnc3)n2)c1	1.9	.
NC(=O)C1CCCN(Cc2ccc(Cl)cc2)C1 (stereo unspecified)	-1.4	7.0
O=C(CN1CCN(S(=O)(=O)c2ccc3c(c2)OCCCO3)CC1)N1CCC(c2ccccc2)=N1	.	10.0
c1ccc(Cc2nnc3sc(Nc4ccccc4)nn23)cc1	1.9	13.0
COc1cc(=O)[nH]c(SC(C)C(=O)Nc2ccccc2)n1 (stereo unspecified)	-3.2	4.0
Cn1c(C2COc3ccccc3O2)n[nH]c1=S (stereo unspecified)	1.2	.
CCOC(=O)c1cc2c(ccn2-c2ccc(F)cc2)n1CC(=O)Nc1ccc(OC)cc1	-0.1	-6.0
FC(F)(F)c1cc(-c2ccccn2)nc2cc(C3CC3)nn12	3.5	.
O=C(O)CSCc1ccccc1	-1.5	.
COC(=O)Cn1cnc2c(cnn2-c2ccccc2C)c1=O	.	7.0
CC(SCC(=O)O)(SCC(=O)O)c1cccc([N+](=O)[O-])c1	-0.8	.
O=C(Nc1cccc(Cl)c1)c1cccs1	-6.0	.
NC(=S)Nc1ccc(F)c(F)c1F	0.0	.
O=C(O)CCc1nn2cnc3sc4c(c3c2nc1=O)CCCC4	-1.4	24.0
NC(=O)CSc1nnc(-c2ccccc2Br)n1Cc1ccccc1	-0.2	0.0
O=C1c2ccncc2C(=O)N1c1ccc(N2CCOCC2)cc1	.	-21.0
O=C(c1ccc(Cl)cc1)N(Cc1cccs1)C1CCS(=O)(=O)C1 (stereo unspecified)	0.5	-8.0
O=C(CSc1nc2ccccc2c(=O)n1-c1ccccc1)c1ccccc1	.	13.0
CC(C)(C)OC(=O)NC1CCN(c2nccc(C(F)(F)F)n2)CC1	0.4	.
COCCn1c(C)cc(C(=O)COc2ccc3c(c2)OCO3)c1C	.	-2.0
CCSC1=NCN(CCCC(=O)O)CN1	.	-6.0
O=C(Nc1ccc2ccccc2c1)C(=O)c1c(O)[nH]c2ccccc12	1.2	1.0
Cc1nn2c3c(cnc2c1-c1ccccc1)C(=O)CCC3	.	-14.0
Cc1cc(-c2ccccc2)n[nH]1	0.8&1.9	12.0&3.0
N=C(N)c1ccc(Cl)cc1	4.7&-2.5	3.0
Cc1cc(C)c(NC(=O)CSc2nnc(CNC(=O)c3c(F)cccc3Cl)o2)c(C)c1	.	6.0
CC(CCc1ccccc1)NC(=O)CSc1nc2ccccc2[nH]1 (stereo unspecified)	1.4	-19.0
NC(=O)c1cc2cc(Cl)cc(Cl)c2oc1=Nc1cccc(C(F)(F)F)c1	2.2	.
CCCNC(=O)NC1CCC(CC)CC1 (stereo unspecified)	1.5	6.0
CCOC(=O)c1c(C)nc2c(c1C)c(=O)oc1ccccc12	-0.6	-2.0
CC(C(=O)O)c1nn(C)c(=O)c2ccccc12 (stereo unspecified)	1.1	-7.0
Cc1ccc(NC(=O)COn2nnc3ccc(S(=O)(=O)N(C)C)cc32)cc1F	.	-2.0
Nc1nc(SCC(=O)c2ccc3c(c2)OCCO3)nc(-c2ccccc2)n1	.	-5.0
NS(=O)(=O)c1cc(C(=O)OC2CCOC2=O)ccc1Cl (stereo unspecified)	.	-9.0
c1ccc(CC2COC(C3=N[C@@H](Cc4ccccc4)CO3)=N2)cc1 (stereo partly specified)	0.3	-12.0
COc1ccc(CCC(=O)Nc2ccc(S(=O)(=O)N(C)C)cc2)cc1OC	.	-9.0
COC(=O)c1cn(C(=O)c2cccs2)c2ccccc12	.	7.0
Cc1nc2sc(C(c3cccc(F)c3)N3CCN(C)CC3)c(O)n2n1 (stereo unspecified)	.	-16.0
CC1(C)C2CCC1(CS(=O)(=O)N1CCN(Cc3ccccc3)CC1)C(=O)C2 (stereo unspecified)	.	7.0
O=C1N/C(=C/c2ccc(C(F)(F)F)cc2)C(=O)N1c1ccccc1	0.9	11.0
Cc1cc(C)nc(SC(C#N)c2ccccc2)n1 (stereo unspecified)	.	-15.0
Cc1cccc(N2CCN(C(=O)C3CCCN(S(=O)(=O)c4cccc5nonc45)C3)CC2)c1C (stereo unspecified)	0.3	-15.0
O=C(Nc1ccccc1)NC1CCN(CCCN2C(=O)c3ccccc3C2=O)CC1	0.8	0.0
CCSc1ccccc1C(=O)Nc1nc2ccccc2c(=O)[nH]1	-5.2	4.0
CC[N+]1(C)CC2CCC(C)(C1)C2(C)C (stereo unspecified)	2.1	5.0
COc1ccc(-c2ccc(C#N)c(=O)[nH]2)cc1	1.9	.
Other compounds follow:
SMILES	MgrA DNA FP	Sa helicase inh
O=C(CSc1nc2ccccc2o1)N1CCCc2ccccc21	.	25.0
CCOC(=O)C1=CN(c2ccc(C)c(C)c2)C=C(C(=O)OCC)C1c1ccccc1F	-2.3	9.0
COc1ccc(-c2c(C#N)c(=O)n3c(sc4ccccc43)c2C#N)cc1	.	7.0
CC(Oc1ccc(C(C)(C)C)cc1)C(=O)Nc1ccc(S(N)(=O)=O)cc1 (stereo unspecified)	-1.2	.

This is a subset; rates above refer to the full screens.
